Bioassay records deposited in PubChem BioAssay by National Center for Advancing Translational Sciences (NCATS).
SARS PLpro yeast – inhibitors of SARS-CoV papain-like protease in yeast; S. cerevisiae expressing SARS-CoV PLpro, growth rescue; control for the full effect not named in the record; Potency, µM (titrated, usually from 32.9 µM), for the others: at the highest dose activity, positive = growth rescue; 330,000 tested, 0.19% active; active means well fitted rising curve with a large enough effect; inconclusive means small, poorly fitted or top-dose-only effect; inactive means no such curve, though single readings can be large or run the other way; further: 0% is about no effect; nearly all actives have a fitted effect of over 55% in size; growth read by luminescence after 48 h
RE007 growth inh – less growth of the S. pombe RE007 Vpr strain. S. pombe RE007 Vpr strain, BacTiter-Glo ATP luminescence, 24 h; control for the full effect not named in the record. Potency, µM (titrated, usually from 92.2 µM), for inactives: at the top dose activity change, negative = less growth. 360,000 tested, 0.21% active; active = well fitted falling curve with a large enough effect; inconclusive = small, poorly fitted or top-dose-only effect; inactive = no such curve, though single readings can be large or run the other way;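 further: on the % scale 0 is the no-effect control and ±100 the full control effect; nearly all actives have a fitted effect of over 50% in size; the assay follows cell death caused by Vpr and the record does not say whether a fall means rescue or toxicity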
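Fission yeast strain RE007, carrying one chromosomally integrated HIV-1 vpr copy, was seeded at OD 0.01 in PMG+AL medium with 23 nL pinned compound. After 24 h at 30 °C and 99% humidity, viability was read by BacTiter-Glo luminescence.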
MARV entry inh – Marburg virus entry inhibition | Marburg virus pseudotyped entry inhibition, cell reporter; control for the full effect not named in the record; about a third of the inactives were read at about 46 µM | Potency, µM (titrated, usually from 37.8 µM), for the others: top-dose activity change, negative = inhibition, most hits filed as inhibitors | 300,000 tested, 1.8% active | AID 540276; active = well fitted inhibition curve with a large enough effect; inconclusive = small, poorly fitted or top-dose-only effect, or effect the other way; inactive = flat fitted curve, though single readings scatter; tested in HEK293 cells; about a fifth of its hits are not listed in these tables; further: on the % scale 0 is the no-effect control and ±100 the full control effect; luciferase read-out
LASV entry inh – Lassa virus entry inhibition; Lassa virus pseudotype entry inhibition, cell reporter; control for the full effect not named in the record; Potency, µM (series often up to 37.9 µM), for inactives: at the top dose activity change, negative = inhibition, most hits filed as inhibitors; 300,000 tested, 1.2% active; AID 540256; active means well fitted inhibition curve with a large enough effect; inconclusive means small, poorly fitted or top-dose-only effect, or effect the other way; inactive means flat fitted curve, though single readings scatter; tested in HEK293 cells; further: on the % scale 0 is the no-effect control and ±100 the full control effect; nearly all actives have a fitted effect of over 50% in size; luciferase read-out
NS1 function inh – inhibitors of influenza NS1 protein function; S. cerevisiae slowed by influenza A NS1, growth recovery by OD600; Potency, µM (highest dose often 46.1 µM), for the others: at the top dose activity, positive = more growth; 270,000 tested, 0.4% active; AID 2326; active means well fitted rising curve with a large enough effect; inconclusive means small, poorly fitted or top-dose-only effect; inactive means no such curve, though single readings can be large or run the other way; further: nearly all actives have a fitted effect of over 50% in size
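Growth recovery, yeast-based: influenza A NS1 expressed in S. cerevisiae causes slow growth, and suppressors are detected by OD600. The parent strain without NS1 is used as positive control.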
Cruzain inh noDet – inhibitors of Trypanosoma cruzi cruzain without detergent | P25779 | purified cruzain, Z-FR-AMC fluorescence, no detergent | Potency, µM, inactives show max response, negative = inhibition, usual class: inhibitors | 200,000 tested, 2.3% active;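 further: plate controls were enzyme without inhibitor for no effect and buffer without enzyme for full effect; nearly all actives have a fitted effect of over 40% in size; top concentration of the series not given in the record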
Target sequence (P25779 123-467 limits assumed): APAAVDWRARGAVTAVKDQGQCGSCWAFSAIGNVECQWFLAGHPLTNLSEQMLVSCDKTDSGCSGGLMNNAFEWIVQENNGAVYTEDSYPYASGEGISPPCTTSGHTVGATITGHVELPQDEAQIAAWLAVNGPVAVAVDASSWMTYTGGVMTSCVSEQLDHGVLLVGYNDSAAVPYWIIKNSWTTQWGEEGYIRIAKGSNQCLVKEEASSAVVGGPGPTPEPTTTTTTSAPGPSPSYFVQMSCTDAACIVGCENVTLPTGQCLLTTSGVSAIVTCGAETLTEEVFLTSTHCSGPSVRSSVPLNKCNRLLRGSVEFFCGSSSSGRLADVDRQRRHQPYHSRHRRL
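Detergent-free condition (0.00005% Triton X-100) in acetate buffer pH 5.5 with DTT. 1.5 nM enzyme and compound were pre-mixed 15 min, then 2 uM Z-FR-AMC substrate added; reaction progress from fluorescence change between first and third reads (60 s).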
2A StopGo – lowers the luciferase signal of an FMDV 2A StopGo reporter; human cells with a luciferase reporter of 2A StopGo recoding; control for the full effect not named in the record; Potency, µM (highest dose often 57.9 µM), without a hit: at the top dose signal change, negative = less light; 410,000 tested, 1.2% active; AID 1159524; active = well fitted falling curve with a large enough effect; inconclusive = small, poorly fitted or top-dose-only effect; inactive = no such curve, though single readings can be large or run the other way; tested in HEK293T cells; further: on the % scale 0 is the no-effect control and ±100 the full control effect; nearly all actives have a fitted effect of over 45% in size; luciferase light after 4 h
Cruzain Triton – cruzain (T. cruzi) inhibition with detergent; P25779; purified cruzain, Z-FR-AMC fluorescence, 0.01% Triton; Potency, µM, without a hit: max response, negative = inhibition, usual class: inhibitors; 200,000 tested, 0.43% active; AID 1478;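 further: plate controls were neutral wells for no effect and buffer without enzyme for full effect; nearly all actives have a fitted effect of over 40% in size; top concentration of the series not given in the record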
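Detergent-containing run (0.01% Triton X-100) in acetate buffer pH 5.5 with 5 mM DTT: enzyme at 1.5 nM final, 15 min compound preincubation at room temperature, then 2 uM Z-FR-AMC substrate. Activity taken as 60 s fluorescence increase at 360/450 nm.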
* marks the source's active call; other numbers are inactive results; ? = inconclusive; . = not tested or not shown; & = joins results of further samples; [ ] = dose if it differs, or a comment. Unless noted, the call rests on the fitted dose curve; in most records, active means well fitted curve in the direction sought with a large enough effect; inconclusive means small, poorly fitted or top-dose-only effect, or another doubt; inactive means no such curve, though single readings can be large; an effect the other way counts as inactive or inconclusive. Potency means the concentration at half of the fitted maximal effect.

SMILES	SARS PLpro yeast	RE007 growth inh	MARV entry inh	LASV entry inh	NS1 function inh	Cruzain inh noDet	2A StopGo	Cruzain Triton
Cc1cc(C)cc(NC(=O)CCS(=O)(=O)c2cccc3nsnc23)c1	.	.	0%[46.1 µM]	13%[46.1 µM]	.	3%	1%	-4.3%
CCN(CC(=O)Nc1c(F)cccc1F)C(=O)c1ccc(COc2ccccc2)cc1	-1%	59%	12%	-3%	.	.	12%	.
OCC[C@@H]1C[C@H](O)[C@@H](O)[C@@]2(OCc3ccccc32)O1	0%	-4%	.	.	5%	.	17%	.
CCOc1ccc(-c2nonc2NC(=O)c2ccc(C)cc2)cc1OCC	.	.	?	13%[46.1 µM]	.	-9%	6%	-0.7%
CC(=O)c1ccc(NC(=O)c2nc(-c3ccccc3)n(-c3ccccc3)n2)cc1	.	.	-2%[46.1 µM]	0%[46.1 µM]	.	?	-10%	-7.9%
O=C(O)c1cccc(NC(=O)c2cn(-c3ccccc3)nc2-c2cc3ccccc3o2)c1	19%	-2%	2%	?	12%	-11%	29%	4.2%
C=CCNC(=S)N1CCC(Cc2ccccc2)CC1	0%	-11%	-24%[46.1 µM]	-27%[46.1 µM]	-72%	.	-9%	.
COc1ccccc1NC(=O)Nc1nc(CC(=O)Nc2ccc(F)c(F)c2)cs1	4%	4%	-18%	?	.	.	?	.
Cc1ccc(C)c(Oc2coc3cc(OC(=O)c4cccs4)ccc3c2=O)c1	.	-21%	5%	1%	.	.	-24%	.
CCCOc1cccc(OCC(=O)Nc2nc3ccccc3[nH]2)c1	?	-11%	1%	-1%	-6%	-28%	7%	-3.8%
COc1ccc(Cl)cc1C(=O)NCC(c1ccc(N(C)C)cc1)N1CCOCC1 (stereo not drawn)	.	.	.	5%[46.1 µM]	.	8%	-5%	-0.1%
c1ccc(-n2cnnc2SCc2cn3ccccc3n2)cc1	?	4%	10%	?	-6%	-2%	3%	4.6%
CN(CC(=O)Nc1cccc(F)c1)C(=O)c1cn(-c2ccccc2)nc1-c1cccs1	.	-13%	-19%	7%	.	.	0%	.
Cc1cc2c(s1)c1cnn(Cc3ccccc3F)c(=O)c1n2C	4%	16%	12%&12%&12%[46.1 µM]	8%	-2%	29%	-6%	-4.0%
NC(=O)c1ccc(Oc2cccc3cccnc23)c([N+](=O)[O-])c1	-1%	6%	28%	0%	6%	.	-21%	.
COc1ccc(NS(=O)(=O)c2ccc(N3C(=O)CCC3=O)cc2)cc1	8%	0%	4%	6%	-3%	-5%	-17%	2.3%
Cc1cc(NC(=O)CSc2nc(C(C)C)nc3ccccc23)no1	-11%	52%	?	?	16%	?	?	-2.3%
Cc1ccc(C)c(NC(=O)C2CCCN2/C=C/C(=O)C(F)(F)F)c1 (stereo not drawn)	10%	.	6%	7%	6%	-5%	-16%	1.0%
c1cncc(C2CC(c3cccs3)n3ncnc3N2)c1 (stereo not drawn)	0%	2%	?	3%	1%	0%	19%	-0.3%
Nc1ccc(CCN2CCCC2)cc1	-7%	-12%	.	.	12%	.	20%	.
Cc1ccc(CCNC(=O)CN2C(=O)COc3ccc(S(=O)(=O)N4CCCCC4)cc32)cc1	17%	-7%	.	5%[46.1 µM]	10%	-10%	-3%&18%	-2.5%
CCC(C)NC(=O)CSc1nc2ccccc2c(=O)n1CCCN1CCCCC1 (stereo not drawn)	3%	3%	.	.	15%	.	-15%	.
O=S(=O)(Cc1ccc(Cl)cc1)NCC1CCCO1 (stereo not drawn)	3%	-2%	3%	4%	?	-1%	.	5.6%
Cc1ccc(C)c(NC(=S)NC(NC(=O)/C=C/c2ccccc2)C(Cl)(Cl)Cl)c1 (stereo not drawn)	-18%	27%	?	7.3µM*	5%	?	-23%	1.9%
Cc1ccc(C)c(N2CCN(S(=O)(=O)c3ccc4c(c3)NC(=O)CS4)CC2)c1	21%	-4%	-20%[46.1 µM]	?	12%	.	-25%	.
CN1CCOCCOCCN(C)C(=O)N2CCOCCOCCN(CCOCC2)C1=O	-1%	-10%	-3%	9%	3%	-7%	.	8.5%
Cc1ccnc(SCc2ccc(C(=O)O)cc2)n1	-1%	-6%	18%[46.1 µM]	17%[46.1 µM]	-25%	.	-3%	.
Cc1noc(C)c1CCC(=O)O	1%	3%	4%[46.1 µM]	5%[46.1 µM]	5%	.	-5%	.
COCCn1c(N)c(N(Cc2ccccc2)C(=O)c2cc(=O)[nH]c3ccccc23)c(=O)[nH]c1=O	-1%	-5%	?	-3%	.	.	1%	.
CCN(CC)CCn1c(NC(=O)c2ccc(C)cc2)nc2ccccc21	-5%	3%	?	-10%	1%	.	31%[activator]	.
CC(=O)NC1=NN(C(C)=O)C2(S1)C(=O)N(C(C)=O)c1ccc(C)cc12 (stereo not drawn)	2%	-12%	0%	-2%	.	.	9%	.
O=C(CSc1nnc(Cc2cc(=O)[nH]c(=O)[nH]2)n1-c1ccc(F)cc1)NC1CCCC1	-8%	-10%	.	.	8%	-5%	-10%	2.8%
FC(F)Oc1ccc(NC(=S)NCc2ccccc2)cc1	-46%	-9%	?	13%	-10%	2%	36%[activator]	-3.6%
O=C(c1cc([N+](=O)[O-])ccc1Cl)N1CCN(c2ccc(F)cc2)CC1	-5%	-3%	-25%	-11%	-26%	10%	-20%	-2.4%
Cc1ccc(C(=O)Nc2nnc(SCC(=O)N3CCCc4ccccc43)s2)cc1	-30%	-7%	?	3.5µM*	9%	?	?	-4.6%
O=C(NCC(c1cccs1)N1CCOCC1)c1ccc(Cl)c(S(=O)(=O)N2CCOCC2)c1 (stereo not drawn)	0%	27%	?	-6%	5%	.	0%	.
COc1ccc(/C=N/NC(=O)C(C)n2cnc3ccccc3c2=O)cc1OC (stereo not drawn)	5%	-16%	21%	?	17%	8%	-1%	-4.4%
CC(=O)c1c(C)[nH]c(C(=O)OCc2ccccc2F)c1C	0%	10%	?	?	.	.	15%	.
COC(=O)C1C(c2ccc(OC)cc2)NC(=O)NC1(O)C(F)(F)Cl (stereo not drawn)	0%	11%	?	0%[46.1 µM]	.	.	-9%	.
C(=N\N1CCN(c2ccccn2)CC1)/C1=C(N2CCOCC2)C(=C/c2ccccc2)/CC1	1%	-25%	0%[46.1 µM]	4%[46.1 µM]	0%	.	-23%	.
CCCC(c1nnnn1C(C)(C)CC)N1CCN(C2CCCC2)CC1 (stereo not drawn)	10%	23%	?	7%	-6%	1%	-20%	1.7%
CCOC(=O)C1=C(c2ccccc2)Nc2nc(C)nn2C1c1cccc(OC)c1OC (stereo not drawn)	3%	9%	-5%	8%	-36%	?	-21%	-2.4%
COc1cccc(SCc2noc(C(=O)NCc3ccccc3)c2C(=O)NCc2ccccc2)c1	0%	1%	.	.	8%	.	0%	.
CC(C)C[C@H](NC(=O)NCCc1ccc(Cl)cc1)C(=O)O	-3%	-14%	17%	2%	6%	-5%	-23%	4.3%
CCN(CC)S(=O)(=O)c1ccc(N/N=C/c2ccccc2OCC(=O)O)c([N+](=O)[O-])c1	1%	9%	10%[46.1 µM]	-1%[46.1 µM]	.	.	-5%	.
CC(C)=C1C2CCC1C1C(=O)N(c3ccc(C)c(C)c3)C(=O)C21 (stereo not drawn)	10%	4%	3%	2%	-3%	-17%	-27%	-4.0%
O=C(CN(C(=O)c1ccccc1Cl)N1C(=O)CCCC1=O)c1ccc(Cl)cc1	11%	-7%	.	.	1%	.	-8%	.
CCc1ccc(-n2c(SCc3cccc(F)c3)nc3[nH]ncc3c2=O)cc1	.	.	.	?	.	8%	?	-11%
Cc1ccc(-c2nc3scc(CCNS(=O)(=O)c4ccc(F)c(C)c4)n3n2)cc1	.	.	.	23%[46.1 µM]	.	11%	20%	-5.7%
CC(C)CNC(=O)NC(=O)COc1c(F)c(F)cc(F)c1F	-7%	-12%	5%[46.1 µM]	-5%	-13%	0%	24%	-4.7%
O=C1Nc2ccccc2SC1c1ccccc1 (stereo not drawn)	-1%	-8%	.	.	-5%	.	-8%	.
O=c1[nH]c(O)c(N=Nc2ccc3c(c2)OCCO3)c(=O)[nH]1	3%	44%	?	?	.	.	?	.
Cc1ccc2[nH]c(=O)c(CN(Cc3ccco3)C(=O)CN3CCCC(C)C3)cc2c1 (stereo not drawn)	-1%	0%	-6%[46.1 µM]	2%	-3%	.	-17%	.
O=C(O)c1ccc(-n2nc(C(F)(F)F)c3c2-c2ccoc2CC3)cc1	-4%	-5%	3%	-3%	-64%	15%	0%	-4.5%
CC(C)(C)C(=O)Nc1ccc(N2CCCC2)cc1	-2%	-11%	-2%	17%	13%	-5%	10%	-0.5%
CN1CCN(C(=O)C(C(=O)c2ccc(F)cc2)n2ccccc2=O)CC1 (stereo not drawn)	-2%	-12%	-2%	-4%	-2%	-12%	-18%	1.5%
CCCC(=O)N(c1ccc2oc(C)c(C(C)=O)c2c1)S(=O)(=O)c1ccc(C(=O)O)cc1	0%	16%	0%[46.1 µM]	20%[46.1 µM]	23%	.	5%	.
COc1cccc(CNCc2cccc(OC)c2O)c1O	.	-6%	1%	-5%[46.1 µM]	.	.	0%	.
O=C(CNC(=O)c1ccccc1Cl)N/N=C/c1ccc([N+](=O)[O-])s1	8%	-3%	?	?	17%	4%	-10%	-8.0%
CC1=NN(c2ccccc2)C(c2ccco2)C1 (stereo not drawn)	.	13%	?	23%[46.1 µM]	.	.	-9%	.
COc1ccc(S(=O)(=O)N2CCCCC2)cc1NC(=O)Cn1cnc2c1c(=O)n(C)c(=O)n2C	-1%	-12%	20%	-13%	.	.	-10%	.
Cc1ccnc(SCC(=O)N2CCc3ccccc32)n1	1%	1%	?	10%[46.1 µM]	-5%	.	-2%	.
Clc1ccc(-c2csc(=Nc3ccccc3)n2Cc2ccc3c(c2)OCO3)cc1	.	.	?	23%[46.1 µM]	.	3%	-2%	-3.4%
